# Screens as filed in PubChem BioAssay.
# WNV protease inh: blocks West Nile virus NS2B-NS3 protease activity. WNV NS2B-NS3 protease, fluorogenic substrate Ex360/Em465; stronger effect = lower value. z-score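 (tested at a level between 10 and 100 µM)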. 0.18% of 65,000 active. AID 577;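 active = z-score at -3 or under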;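 also: score is relative to mean and spread of the compound wells of a plate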
# Target sequence (P06935 1371-1501 limits assumed): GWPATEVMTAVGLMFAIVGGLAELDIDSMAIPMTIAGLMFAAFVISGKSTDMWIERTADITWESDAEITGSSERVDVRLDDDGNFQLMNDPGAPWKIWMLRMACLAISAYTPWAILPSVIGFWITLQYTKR
# Target sequence (P06935 1502-1679 limits assumed): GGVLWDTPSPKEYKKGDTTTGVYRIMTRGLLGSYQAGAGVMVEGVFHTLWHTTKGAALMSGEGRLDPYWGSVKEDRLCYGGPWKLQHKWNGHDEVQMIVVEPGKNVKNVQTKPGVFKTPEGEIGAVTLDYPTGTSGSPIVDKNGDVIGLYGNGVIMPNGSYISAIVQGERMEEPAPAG
# MT1-MMP reporter: inhibitors of MT1-MMP promoter transcription, cell-based, luciferase reporter, luminescence (AID 618). MT1-MMP promoter luciferase reporter cells, luminescence. 0.62% of 87,000 active. calls from a first round at 10 µM; hits with a dose series show EC50 in µM;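 active = over half of the reporter light lost at 10 µM or EC50 under 50 µM; inactive = the rest and hits that failed the dose series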;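 also: actives suppress MT1-MMP promoter-driven transcription so potencies describe inhibitors; HT1080 fibrosarcoma cells; overnight exposure; toxic or luciferase-blocking compounds were not removed from the actives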
# Hsc70 ATP site: small molecules displacing fluorescent ligand from Hsc70 – biochemical, fluorescence polarization, primary screen (AID 568); Hsc70 fluorescence polarization, probe displacement; higher % means a stronger effect; strong numbers were not always called active; displacement, % at 20 µM, or IC50 in µM where a hit was titrated; 83,000 tested, under 10 active;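 active = displacement above 50% without optical interference and an IC50 on retest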;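 also: ATPase domain with a fluorescein-tagged ATP probe; 0% = vehicle and 100% = excess ADP; read after one hour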
# * = called active by the depositor; i = inactive; . = not tested or not shown; + = active, no number.
# Order of values: WNV protease inh | MT1-MMP reporter | Hsc70 ATP site
- NC1=NC(=O)CC(C(=O)NCCc2ccccc2)S1 (centres undefined)
    -0.2 | i | 0.1%
- COC(=O)CC1C(=O)NCCN1C(=O)NC1CCCCC1 (centres undefined)
    -0.29 | i | 0.5%
- O=C(CCCn1c(=S)[nH]c2ccccc2c1=O)NC1CCCCC1
    . | i | -1.3%
- O=C(OCCN1C(=O)c2ccccc2C1=O)c1cc(S(=O)(=O)N2CCOCC2)ccc1Cl
    1.5 | i | 1.2%
- COc1ccc(C(c2nnnn2C2CCCC2)N2CCN(c3ccccc3)CC2)cc1 (centres undefined)
    . | i | 2.7%
- CCOC(=O)/C(C#N)=C/c1cc(C)n(-c2ccc(C)cc2)c1C
    . | i | -6.4%
- COc1ccc2c(c1)CCc1c(C(=O)N3CC4(C)CC3CC(C)(C)C4)noc1-2 (centres undefined)
    -1.6 | i | -15%
- O=C(CCl)Nc1cc(-c2ccccc2)nn1-c1ccccc1
    . | + | 0.5%
- CCOC(=O)C1CCN(C(=O)CSc2cc(=O)n(C)c3ccccc23)CC1
    -0.02 | i | 42%
- CCOC(=O)N1CCN(S(=O)(=O)c2ccc(Br)s2)CC1
    -1.4 | i | 1.7%
- Cc1cc(C)n(-c2nc(SCCN(C)C)c3c4c(sc3n2)CCCC4)n1
    . | i | 7.4%
- COc1cc(C)c(C(C)C)cc1S(=O)(=O)N1CCN(C)CC1
    0.97 | i | -9.5%
- COc1ccc(OC)c(C2=NOC(C(=O)Nc3cccc(C(C)=O)c3)C2)c1 (centres undefined)
    0.57 | i | 6.7%
- O=C1C2CC=CCC2C(=O)N1CC1CCCO1 (centres undefined)
    0.72 | i | -1.4%
- O=C(O)C1CCC(CNCc2cccnc2)CC1 (centres undefined)
    -0.89 | i | 0.5%
- Cc1nnc(SCC(=O)NC(=O)NC2CCCC2)n1N
    . | i | -1.4%
- FC(F)(F)Oc1ccc(Nc2nc3ccccc3o2)cc1
    -0.02 | i | -1.4%
- CCN1C(=O)C(O)(CC(=O)c2ccc(-n3cccc3)cc2)c2ccccc21 (centres undefined)
    -1.3 | i | -0.7%
- O=C1c2ccccc2-c2onc3c(Oc4ccccc4)cc(O)c1c23
    . | i | 5.9%
- Cc1nc(-c2cccc(S(=O)(=O)N3CCC(C)CC3)c2)cs1
    . | i | -8.1%
- Oc1ccc2ccccc2c1CN1CCN(c2ccccc2)CC1
    . | i | -0.3%
- CS(=O)(=O)N1CCN(c2ccccc2NC(=O)c2ccc(Br)o2)CC1
    . | i | 0.2%
- C=CCN(CC=C)C(=O)Cc1ccc(F)cc1
    -0.34 | i | 2.2%
- O=C(CSc1ncccn1)NCc1ccccc1Cl
    0.7 | i | -12%
- COc1cccc(C(=O)OCn2nnc3ccccc3c2=O)c1
    0.58 | i | -7.4%
- Cc1nn(-c2ccccc2)c(Cl)c1C(=O)Nc1nnc(C2CCCCC2)s1
    . | i | -1.8%
- CCCNS(=O)(=O)c1ccc(NC(=O)Cc2cccs2)cc1
    . | i | -2.7%
- COC(=O)c1cccc(S(=O)(=O)N2CCC(NC(=O)NC34CC5CC(CC(C5)C3)C4)CC2)c1
    0.56 | i | 4.9%
- N#Cc1cc2c(nc1SCc1ccccc1)CCC2
    . | i | 1.2%
- Cc1cc(C)c2c3c(c(-c4ccccc4)n2n1)c(=O)n(C)c(=O)n3C
    0.46 | i | -30%
- COc1cccc(-c2ccc(-c3noc(-c4ccccc4F)n3)c(OC)n2)c1
    -0.0091 | i | 2.6%
- C=C(C)CN(CC)C(=O)CSc1nc2ncc(Cl)cc2[nH]1
    1.4 | i | 6.7%
- Cc1nnc(NC(=O)C2CCN(c3cnccn3)CC2)s1
    0.14 | i | 0.5%
- c1cc(-c2nn[nH]n2)ccc1CN1CCCCC1
    0.94 | i | 1.1%
- O=C1c2ccccc2C(Nc2cccnc2)N1Cc1ccccc1Cl (centres undefined)
    -1.1 | i | 1.1%
- CC(=O)Oc1ccc(Cn2cnc3cc4ccccc4cc32)cc1
    . | i | -2.2%
- O=S(NC1CCCCC1)C12CC3CC(CC(C3)C1)C2 (centres undefined)
    1 | i | 9.0%
- O=C(CSc1nc2ccccc2n1CC(=O)N1CCCC1)NCc1ccc2c(c1)OCO2
    0.64 | i | -3.6%
- Cc1ccc(-n2c(-c3c(-c4ccccc4)noc3C)n[nH]c2=S)cc1
    . | i | 1.5%
- CS(=O)(=O)N1CCN(C(=O)c2cc(-c3ccncc3)nc3ccc(Cl)cc23)CC1
    -1.5 | i | -5.8%
- CCOC(=O)CCC(=O)N1CCOCCOCCN(C(=O)CCC(=O)OCC)CCOCCOCC1
    . | i | -0.2%
- Cc1ccc(SCCNC(=O)c2ccccc2C)cc1
    . | i | 2.6%
- O=C(Nc1ccc(Cl)cc1)OCc1cncs1
    . | i | 1.1%
- CCCc1cc(=O)[nH]c(SCC(=O)c2cc(C)n(CCOC)c2C)n1
    0.7 | i | 3.8%
- CC(=O)Nc1cccc(N2C(=O)CC(N3CCC(C(=O)N4CCCCC4)CC3)C2=O)c1 (centres undefined)
    1.2 | i | -3.0%
- COCCCNC(=O)Cn1cc2c(n1)CCC(C)C2 (centres undefined)
    -0.56 | i | 0.1%
- COC(=O)c1cc2c(ccn2-c2ccc(F)cc2)n1CC(C)C
    . | i | -2.1%
- CCOc1ccc2[nH]c(=O)c(C(c3nnnn3C3CCCCC3)N3CCN(CC)CC3)cc2c1 (centres undefined)
    1.2 | i | 2.4%
- NCCCCCc1nnc(SCc2ccc(Cl)c(Cl)c2)o1
    . | i | 2.7%
- C=CCNc1nc(N2CCCCC2)c(C#N)c2c1CN(Cc1ccccc1)CC2
    0.34 | i | 1.2%

# Going on with the list:
# Order of values: WNV protease inh | MT1-MMP reporter | Hsc70 ATP site
- CCCOC(=O)CSC1=C(C#N)C(c2ccccc2OC)C(C#N)C(=O)N1 (centres undefined)
    0.05 | i | -2.1%
- CC(NC(=O)Nn1cnnc1)(C(F)(F)F)C(F)(F)F
    . | i | 2.2%
- CCOc1ccc(NC(=O)CC2CC(C)(C)OC2=O)cc1 (centres undefined)
    -0.07 | i | 1.3%
- Cc1ccc(CN2CC(C(=O)O)CC2=O)cc1 (centres undefined)
    . | i | 4.0%
- Cc1oc(-c2ccccc2Cl)[n+]([O-])c1C
    . | i | 0.1%
- CC(=O)Nc1nc(CC(C)C)cc2c1c(=O)oc1ccccc12
    1.7 | i | 0.5%
- Cc1nnc(NC(=O)CSc2nnc3scc(-c4ccc(C)c(C)c4)n23)s1
    2 | i | -26%
- CCOc1cc(-c2conc2N)cc(OCC)c1OCC
    0.07 | i | -12%
- O=C(CN1CCN(Cc2ccccc2)CC1)Nc1ccc(Cl)cn1
    -0.15 | i | 1.5%
- Cc1cc(=O)oc(C)c1C(=O)N1CCN(c2ccc(F)cc2)CC1
    . | i | 0.5%

# Later entries
Molecule	WNV protease inh	MT1-MMP reporter	Hsc70 ATP site
COC(=O)CNC(=O)Cn1cnc2sc(C)c(S(=O)(=O)N3CCC(C)CC3)c2c1=O	.	i	-2.0%
CCC(C)(C)NC(=O)C(c1ccc(F)cc1)N(Cc1ccco1)C(=O)c1snc(C(N)=O)c1N (centres undefined)	0.25	i	-7.0%
COc1ccc(S(=O)(=O)N2CCOCC2)c(Cl)c1Cl	-0.26	i	11%
Cc1ccc2c(NC(=O)C3CC3)cccc2n1	0.48	i	-1.3%
CC1CCN(Cc2nc3c(c(=O)n(C)c(=O)n3C)n2CCc2ccccc2)CC1	-0.18	i	-2.7%
COC(=O)[C@H](C)NC(=O)Nc1cc(Cl)ccc1C	.	i	0.2%
Cc1cccc(C(=O)NC2CC3CCCC(C2)N3C(=O)NC2CCCCC2)c1 (centres undefined)	-1.2	i	-4.0%
COc1ccc(NC(=O)CSC2=NC(=O)CC(C)=N2)cc1	1.1	i	-6.2%
COc1ccc(OC)c(NC(=O)C(CC(C)C)NC(=O)C2CCCCC2)c1 (centres undefined)	-0.01	i	9.4%
COc1ccc2[nH]c(=O)c(CN(Cc3nnnn3Cc3ccco3)C3CCCCC3)cc2c1	-0.17	i	-2.1%
CS(=O)(=O)N(CC(=O)NCc1ccc2c(c1)OCO2)Cc1ccccc1	0.28	i	4.1%
COc1ccc(CCNC(=O)CCNS(=O)(=O)c2cccc3nonc23)cc1OC	.	i	0.5%
COC(=O)c1c(NC(=O)C2CC2)sc2c1CCN(C(C)=O)C2	-1.1	i	7.5%
CC(=O)C1=C(O)C=C(c2ccco2)CC1c1ccco1 (centres undefined)	0.41	i	-3.7%
COc1ccc(-c2cc(C(F)F)n3ncc(C(=O)N4CCSCC4)c3n2)cc1	-2	i	2.2%
Cc1onc(-c2ccccc2Cl)c1C(=O)NCc1ccco1	0.5	i	1.2%
CCN(CC)CCCN1C(=O)c2oc3ccccc3c(=O)c2C1c1cccnc1 (centres undefined)	0.65	i	-0.1%
N#Cc1cnn(-c2ncnc3sc(-c4ccccc4)cc23)c1N	.	i	1.8%
COc1ccc2c(c1)c(C(=O)N1CCN(C)CC1)c(C)n2-c1ccccc1	-0.58	i	-3.1%
COC(=O)COc1ccc(S(=O)(=O)Nc2ccc3c(c2)OCO3)cc1	-0.15	i	5.0%
COc1ccccc1CNC(=O)c1ccc(CNc2c(N3CCCC3)c(=O)c2=O)cc1	-0.86	i	0.1%
CC1(C)[N+]([O-])=C2C(=[N+]([O-])C1(C)C)c1ccccc1/C2=N\O	0.57	i	2.0%
CN(C)[C@H]1N(C(=O)c2ccc(Br)cc2)N=C2c3ccccc3S(=O)(=O)N21	.	i	3.1%
CCOC(=O)c1ccc2[nH]cc(C(C)=O)c(=O)c2c1	-0.53	i	3.6%

# Entries shown so far containing two or more sulfur atoms (6):
Molecule	WNV protease inh	MT1-MMP reporter	Hsc70 ATP site
CCOC(=O)N1CCN(S(=O)(=O)c2ccc(Br)s2)CC1	-1.4	i	1.7%
Cc1cc(C)n(-c2nc(SCCN(C)C)c3c4c(sc3n2)CCCC4)n1	.	i	7.4%
Cc1nc(-c2cccc(S(=O)(=O)N3CCC(C)CC3)c2)cs1	.	i	-8.1%
CCCNS(=O)(=O)c1ccc(NC(=O)Cc2cccs2)cc1	.	i	-2.7%
Cc1nnc(NC(=O)CSc2nnc3scc(-c4ccc(C)c(C)c4)n23)s1	2	i	-26%
COC(=O)CNC(=O)Cn1cnc2sc(C)c(S(=O)(=O)N3CCC(C)CC3)c2c1=O	.	i	-2.0%

# Other structures follow.
Molecule	WNV protease inh	MT1-MMP reporter	Hsc70 ATP site
O=C(CN1C(=O)c2ccccc2C1=O)c1ccccc1	.	i	0.4%
Cc1ccc(N=c2ssnc2Cl)cc1	.	i	-5.7%
COc1ccc(NC(=O)Cn2nnc(C(N)=O)c2N)c(OC)c1	0.93	i	6.9%
CC1Cc2ccccc2N1C(=O)CSc1nnc2n1C(C)(C)Cc1ccccc1-2 (centres undefined)	-0.09	i	4.7%
NC(=S)N/N=C/c1ccc(-c2cc(Cl)cc(Cl)c2)o1	.	i	-0.2%
COc1ccc(S(=O)(=O)CCc2nc3ccccc3s2)cc1	0.24	i	1.8%
Cc1cc(NC(=O)CCOc2ccccc2)no1	-0.63	i	3.0%
CC1(c2cc(C(F)(F)F)n3nc(C(=O)O)cc3n2)CC1	.	i	5.5%
C/C(=N\O)C1(C)N(O)C(C)(C)C(c2ccc(Br)cc2)=[N+]1[O-] (centres undefined)	-0.01	i	-3.0%
CCCn1c2ccccc2c2nnc(SCC(=O)Nc3ncccn3)nc21	-0.47	i	-0.2%
CC(C)C(c1nnnn1C1CCCC1)N1CCN(C(=O)c2ccco2)CC1 (centres undefined)	-0.53	i	2.9%
CCc1ccc(C(=O)/C=C/c2cnn(C)c2C)s1	.	i	-2.8%
COc1ccccc1-n1c(CNC(=O)c2ccccc2)nnc1SCC(=O)Nc1nnc(C)s1	-1.4	i	3.1%
CC(C)N=c1scc(-c2ccco2)n1/N=C/c1ccc(O)c(O)c1	.	i	0.7%
c1ccc(CC2CNc3ccccc3CN2)cc1 (centres undefined)	0.13	i	1.0%
CCC(C)NS(=O)(=O)c1cccs1 (centres undefined)	0.33	i	5.2%
O=C(NC1CCC(NC(=O)C(F)(F)C(F)F)CC1)C(F)(F)C(F)F (centres undefined)	-0.46	i	-1.3%
Cc1cccc(C)c1NC(=O)CSCCO	0.59	i	-1.0%
CCCc1cc(=O)n2[nH]c(CCc3ccccc3)nc2n1	1.3	i	-5.8%
COc1ccccc1/C=C/CN1CCN(c2ccccc2)CC1	.	i	1.3%
O=c1[nH]c(=O)n(CCO)c2nnn(Cc3ccccc3)c12	-0.81	i	-1.8%
CCN(CC)C(=O)C1CCN(Cc2ccc(Br)cc2)CC1	-0.4	i	-5.7%
COc1cc(OC)c(C2C(C(=O)Nc3ccccc3)=C(C)Nc3ncnn32)cc1OC (centres undefined)	-0.76	i	-5.7%
CCOc1ccc2[nH]c(C)c(CN3CCCCC3)c(=O)c2c1	1.3	i	-1.8%
O=C(C1=C(O)C(=O)N(Cc2ccccc2)C1c1ccco1)c1ccco1 (centres undefined)	.	i	-2.0%
Cc1cc(C(F)(F)F)c(C#N)c(SCC(=O)NC(C)(C)C)n1	-1	i	-1.2%
NC(=O)c1ccsc1NC(=O)CSc1nc2ccccc2c(=O)n1CCCO	1.8	i	-9.8%
